Source: PubChem BioAssay (several laboratories)
Bead autofluor – counter-screen for toxin protease inhibitors: compound fluorescence; AID 624483; 360,000 tested, 3.1% active; fluorescence intensity (test concentration not listed); compound autofluorescence counterscreen, microsphere flow cytometry; active compounds read high;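 active = at least 3 SD above the mean of all compounds, about 16000 in these data; inconclusive = too few beads counted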;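 note: 100 nL of 1 mM stock went into each well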
PrP UTR inh – inhibition of PrP 5' UTR reporter expression | cell-based PrP 5' UTR mRNA reporter, plate reader | inhibition, % (no concentration beside the values) | 340,000 tested, 0.35% active;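 active = every replicate at 50% or more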;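 note: 0 = median of the neutral control wells; tested in H4 reporter cells; numbers are from one replicate; inactives centre near -14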
Sa RN4220 lethal – growth inhibition of S. aureus RN4220, primary screen, OD600. 16 h. inhibition, % (concentration not given with the values). 330,000 tested, 0.33% active;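 active = z-score of -3 or lower and OD600 up to 0.18 on both plates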;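 note: plate controls were untreated cells for no effect and reference antibiotic for full effect; stock transfer was 100 nL into about 80 µL; one replicate is shown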
ugtP null kill – growth inhibition of ugtP-null S. aureus, primary screen, RN4220 ugtP deletion, OD600. 330,000 tested, 0.54% active. 16 h; some inactives read as strong as hits. growth inhibition, % (no concentration beside the values);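 active = z-score under -3 and OD600 up to 0.15 on both plates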;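 note: plate controls were untreated wells for no effect and antibiotic for full effect; wells of about 80 µL received 100 nL stock; the first replicate is given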
BJeLR lethal – MLPCN primary cell-based screen for lethality selective to Ras in HRASV12 cells; BJeLR (HRASV12) viability, CellTiter-Glo ATP luminescence, 48 h; reference of the scale not given here; inhibition, % (no concentration beside the values); 300,000 tested, 0.17% active; AID 1554, 2009;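 active = replicate mean above 50%; inconclusive = above 50% but judged a plate artefact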;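 note: 50 nL library stock added to about 25 µL; numbers are from one replicate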
Mtb hypoxia inh – PubChem AID 1159583; M. tuberculosis hypoxia-regulated fluorescent reporter, fluorescence; fluorescence inhibition, % (test concentration not listed); 300,000 tested, 0.1% active;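 active = 35 to 45% if threefold the growth effect, above 45% if 1.5-fold the growth effect; inactive = the rest, general growth blockers included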;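 note: wells of about 50 µL received 100 nL stock; 0% = vehicle wells and 100% = reference inhibitor wells; whole bacteria with a GFP reporter of the hypoxia response; strong numbers were not always called active; many hits fall short of the cut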
Mtb hypoxia inh growth – further read-out of Mtb hypoxia inh, marked with its call; growth inhibition, %; measured here: M. tuberculosis growth (absorbance);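 0% = vehicle and 100% = reference antibiotic; read after six days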
Active calls of the source: *; ? = inconclusive; · = no result given.

Sequence of screens: Bead autofluor | PrP UTR inh | Sa RN4220 lethal | ugtP null kill | BJeLR lethal | Mtb hypoxia inh | Mtb hypoxia inh growth
#1 O=C(N1CCOCC1)N1CCN(Cc2ccccc2)CC1
    16289* | -30 | 3.7 | 5 | -13 | 9 | 18
#2 COc1ccc(/C=N/NC(=O)c2c(C)nc3ccc(Br)cn23)cc1OC
    4372 | -55 | · | · | -7 | · | ·
#3 Cc1occc1C(=O)NNC(=S)Nc1cccc([N+](=O)[O-])c1
    2585 | -46 | -0.8 | 5 | -10 | 7 | 4
#4 Cc1ccc(C)c(S(=O)(=O)NC2CCS(=O)(=O)C2)c1 (configuration not stated)
    6646 | 4 | · | · | -7 | · | ·
#5 CCOC(=O)c1c(NC(=O)CSc2ncccn2)sc(C(=O)NC)c1C
    · | -3 | 1.2 | 2 | 6 | 2 | -7
#6 N#Cc1ccc(NC(=S)NCCN2CCOCC2)cc1
    3948 | -47 | 3.6 | 4 | -18 | 7 | 14
#7 C=CCN(c1ccccc1)S(=O)(=O)c1cccc(C(=O)NNC(=O)c2ccccc2O)c1
    ? | -23 | 11 | 6 | -4 | 8 | -2
#8 O=C(Cn1cnc2cc([N+](=O)[O-])ccc2c1=O)Nc1ccccc1-c1ccccc1
    5664 | -18 | -7.3 | -5 | 5 | 4 | 0
#9 CC1=C(C(=O)Nc2ccc(C)cc2)C(c2cccs2)NC(=S)N1 (configuration not stated)
    2468 | -19 | -3.5 | -5 | -2 | -14 | 5
#10 Cn1cccc1C=NNC(=O)c1cccnc1
    · | · | 2.5 | 4 | · | 17 | 7
#11 COc1ccc(CCN(Cc2ccccn2)C(=S)Nc2ccc(C)cc2)cc1OC
    4126 | -17 | 2.2 | 4 | 1 | 12 | 1
#12 CC(C)CC(N)c1cn(C(CCC(=O)O)C(=O)N2CCNCC2)nn1 (configuration not stated)
    · | · | 6.5 | 5 | · | 14 | 16
#13 CCn1c(CN2CCN(c3ccc(Cl)cc3)CC2)nc2ccccc21
    9779 | -5 | -7.8 | -5 | · | 5 | 6
#14 Cc1ccc(N(Cc2ccccc2)C(=O)c2ccc(F)cc2)cc1
    5403 | -50 | -2.5 | 10 | 1 | 3 | 1
#15 COc1ccc2[nH]c(=O)c(CN(C(=O)c3ccco3)C3CCCCC3)cc2c1
    2200 | -7 | 1.5 | -2 | 2 | · | ·
#16 O=C(O)CNC(=S)NCc1ccccc1
    4358 | 28 | · | · | -5 | · | ·
#17 C=CCc1cc(/C=C/c2nc(O)c([N+](=O)[O-])c(=O)[nH]2)cc(OC)c1O
    4179 | -45 | · | · | -1 | · | ·
#18 COc1cc([N+](=O)[O-])cc(C=NNC(=O)Cn2cncn2)c1O
    · | · | 3.3 | 2 | · | 6 | -4
#19 CCCCCCCCn1c2c(c(=N)c3c1CCC3)CCCC2
    4607 | 2 | 100* | 100* | 25 | · | ·
#20 O=C1Nc2ccccc2C1(O)Cc1ccccn1 (configuration not stated)
    4942 | -4 | 4.2 | 6 | -2 | -2 | -1
#21 CCOc1ccccc1N1CCN(C(=O)c2ccc(NS(=O)(=O)c3ccc4[nH]c(=O)[nH]c4c3)cc2)CC1
    4409 | -18 | 5.3 | 19 | 8 | -1 | 0
#22 CCn1cc([N+](=O)[O-])c(C(=O)N2N=C(c3cccc4ccccc34)CC2c2ccccc2O)n1 (configuration not stated)
    3304 | 5 | -4.1 | -24 | -9 | 11 | 9
#23 CCCc1ccc(OCc2ccc(C(=O)OC)o2)c(OC)c1
    23181* | -94 | 8.4 | 17 | 5 | 11 | 11
#24 O=Cc1cnc(N2CCOCC2)nc1
    6965 | -4 | 7.5 | 5 | 24 | 10 | -3
#25 COC(=O)CCNC(=O)c1nn(Cc2ccccc2)c(=O)c2ccccc12
    3891 | -26 | 1.6 | 9 | -2 | 7 | 2
#26 O=C(COC(=O)COc1ccc2c(c1)CCC2)Nc1ccccc1
    8345 | -22 | 2.8 | 2 | · | 6 | 6
#27 CCC(CC)c1nnc(NC(=O)CCCN2C(=O)c3ccccc3C2=O)s1
    4063 | -15 | 8.9 | 4 | -3 | 2 | 6
#28 O=C(CSc1nnc2ccccn12)Nc1cccc(-c2nc3ccccc3s2)c1
    2376 | -159 | · | · | -8 | · | ·
#29 Cc1ccccc1NC(=S)NCCSc1ccc(Cl)cc1
    4093 | -6 | 1.0 | 11 | 0 | 11 | -2
#30 CCOc1ccc(OCCn2nnc3ccccc3c2=O)cc1
    4342 | -51 | 2.3 | -5 | -3 | -4 | 7
#31 CCCNC(=O)c1ccccc1NC(=O)Nc1ccccc1C
    2330 | -17 | -2.6 | -4 | 2 | · | ·
#32 CCc1ccc[n+](-c2[nH]c(=O)sc2/C=N/NC([S-])=Nc2ccccc2)c1
    2350 | -27 | · | · | -7 | · | ·
#33 Cc1cc(OC(=O)c2ccco2)c2c3c(c(=O)oc2c1)CCCC3
    2046 | -2 | -3.8 | -19 | 14 | · | ·
#34 CC1=C[C@H]2Cc3cc(C)cc(C)c3S(=O)(=O)[C@@H]2C=C1
    2493 | -13 | 7.4 | 4 | 0 | 6 | 4
#35 CCOC(=O)C1(CC2CC2)CCN(Cc2cn[nH]c2-c2ccccc2)CC1
    4468 | -25 | 2.3 | 3 | -4 | 5 | 8
#36 COc1ccccc1CCNC(=O)c1nc(-c2cccs2)no1
    2287 | -45 | 0.3 | -3 | 0 | 21 | 24
#37 COc1ccc([N+](=O)[O-])cc1N(CC(=O)Nc1ccccc1C(=O)NC(C)C)S(C)(=O)=O
    3831 | -27 | 2.8 | 2 | -6 | 8 | 5
#38 CC1(C)CC(N2CCN(CCO)CC2)=CC(=S)N1
    14813 | -14 | · | · | 2 | · | ·
#39 Cc1nc(N2CCN(Cc3nc4ccccc4[nH]3)CC2)c2oc3ccccc3c2n1
    3379 | -36 | 2.0 | 9 | 10 | -9 | -4
#40 CCc1nc(SCC(=O)Nc2ccc(N(C)C)cc2)n[nH]1
    6271 | -6 | 6.8 | 2 | 1 | -2 | -7
#41 CC1CC(C)CN(C(=O)CSc2nnc(-c3ccc(Cl)cc3)o2)C1 (configuration not stated)
    6247 | -15 | 11 | 13 | -2 | · | ·
#42 Cc1ccccc1OCCC(=O)OCC(=O)c1c(N)n(CC(C)C)c(=O)n(C)c1=O
    6040 | 1 | -0.3 | -3 | 5 | 7 | -4
#43 Cc1ccc(NC(=O)C/C(N)=N/OC(=O)Nc2cccc(C)c2)cc1
    8502 | 2 | 6.4 | -4 | · | 8 | 12
#44 CCn1c(C)nc2cc(C(=O)NN=C(C)c3ccc(C#N)cc3)ccc21
    3009 | -9 | 5.1 | 7 | · | 3 | 2
#45 CCOc1ccccc1C=c1sc2ncnn2c1=O
    · | · | 0.5 | 6 | · | 6 | 9
#46 CCN(C(=O)c1ccnc(C(C)(C)C)c1)c1ccccc1
    21211* | -19 | 6.0 | -2 | 0 | 0 | -3
#47 C(=Nn1cnnc1)c1ccc2ncccc2c1
    · | · | -0.2 | 0 | · | -14 | -8
#48 Cc1ccc2nc(-c3ccncc3)cc(C(=O)Nc3ccc4c(c3)OCCO4)c2c1
    4154 | -42 | 0.7 | -1 | -12 | -6 | -6
#49 COc1ccccc1Nc1ncnc2c1oc1ccccc12
    3161 | -72 | 10 | -17 | 7 | 9 | 6
#50 O=C(Nc1ccc(N2CCN(C(=O)c3ccco3)CC2)cc1)c1cccc(F)c1
    9176 | -38 | 4.5 | -7 | -7 | 7 | 22
#51 NC(=O)c1ccccc1NC(=O)C1CCCO1 (configuration not stated)
    3317 | -9 | 1.3 | -2 | -4 | 10 | -1
#52 CCOC(=O)C(C)n1nc(C)c2sc3ccccc3c2c1=O (configuration not stated)
    11023 | · | 2.1 | 9 | -2 | 1 | -2
#53 COc1ccc(C(=O)C[n+]2cccc(Br)c2)cc1
    4573 | -18 | -1.4 | 0 | -2 | -2 | 5
#54 COCCCNC(=O)Nc1ccc2c(c1)N(C)C(=O)CS2
    3708 | -8 | -2.4 | -1 | 9 | 9 | 8
#55 O=C(c1ccc(Cl)cc1)c1cc(-c2ccccn2)c(N2CCOCC2)s1
    8945 | -14 | -1.5 | 0 | 12 | 7 | -1
#56 O=C(Cn1cnc2ccccc2c1=O)Nc1ccc2c(c1)OCO2
    2109 | -37 | -0.7 | -1 | 2 | 5 | 2
#57 CCOc1nc(-c2ccccc2)c2cc(C)ccc2n1
    6072 | -6 | -3.0 | 8 | -1 | 8 | 4
#58 COc1cc(C2c3cc4c(cc3C(OC3OC5COC(c6cccs6)OC5C(O)C3O)C3COC(=O)C23)OCO4)cc(OC)c1O (configuration not stated)
    4243 | 71* | · | · | 73* | · | ·
#59 CC(=NNS(=O)(=O)c1ccccc1)c1c[nH]c2ccccc12
    · | · | 0.5 | -6 | · | -4 | -2
#60 CCOc1ccc(-c2ccc(NS(=O)(=O)c3cc([N+](=O)[O-])c(C)c([N+](=O)[O-])c3)cc2)nn1
    5916 | -2 | -5.3 | 6 | 2 | -1 | 1

Next structures follow:
Sequence of screens: Bead autofluor | PrP UTR inh | Sa RN4220 lethal | ugtP null kill | BJeLR lethal | Mtb hypoxia inh | Mtb hypoxia inh growth
#61 Cc1sc2nc(CSCC(=O)Nc3ccc(C(F)(F)F)cc3)[nH]c(=O)c2c1C
    5546 | · | 0.7 | -12 | · | 5 | 6
#62 OC1OC(c2ccc3c(c2)OCO3)C2COC(c3ccc4c(c3)OCO4)C12 (configuration not stated)
    · | · | 3.2 | 6 | · | 22 | 9
#63 CC(C)NC(=O)c1ccc(Cl)cc1Cl
    2692 | -21 | 4.9 | 6 | · | 7 | 7
#64 FC(F)(F)c1cc(-c2cccs2)nc2cc(-c3ccccc3)nn12
    7571 | -23 | 6.5 | -1 | 4 | 6 | 2

16 entries from above, sorted by molecular weight, low to high.
Sequence of screens: Bead autofluor | PrP UTR inh | Sa RN4220 lethal | ugtP null kill | BJeLR lethal | Mtb hypoxia inh | Mtb hypoxia inh growth
#16 O=C(O)CNC(=S)NCc1ccccc1
    4358 | 28 | · | · | -5 | · | ·
#63 CC(C)NC(=O)c1ccc(Cl)cc1Cl
    2692 | -21 | 4.9 | 6 | · | 7 | 7
#51 NC(=O)c1ccccc1NC(=O)C1CCCO1 (configuration not stated)
    3317 | -9 | 1.3 | -2 | -4 | 10 | -1
#20 O=C1Nc2ccccc2C1(O)Cc1ccccn1 (configuration not stated)
    4942 | -4 | 4.2 | 6 | -2 | -2 | -1
#45 CCOc1ccccc1C=c1sc2ncnn2c1=O
    · | · | 0.5 | 6 | · | 6 | 9
#49 COc1ccccc1Nc1ncnc2c1oc1ccccc12
    3161 | -72 | 10 | -17 | 7 | 9 | 6
#54 COCCCNC(=O)Nc1ccc2c(c1)N(C)C(=O)CS2
    3708 | -8 | -2.4 | -1 | 9 | 9 | 8
#29 Cc1ccccc1NC(=S)NCCSc1ccc(Cl)cc1
    4093 | -6 | 1.0 | 11 | 0 | 11 | -2
#9 CC1=C(C(=O)Nc2ccc(C)cc2)C(c2cccs2)NC(=S)N1 (configuration not stated)
    2468 | -19 | -3.5 | -5 | -2 | -14 | 5
#12 CC(C)CC(N)c1cn(C(CCC(=O)O)C(=O)N2CCNCC2)nn1 (configuration not stated)
    · | · | 6.5 | 5 | · | 14 | 16
#55 O=C(c1ccc(Cl)cc1)c1cc(-c2ccccn2)c(N2CCOCC2)s1
    8945 | -14 | -1.5 | 0 | 12 | 7 | -1
#8 O=C(Cn1cnc2cc([N+](=O)[O-])ccc2c1=O)Nc1ccccc1-c1ccccc1
    5664 | -18 | -7.3 | -5 | 5 | 4 | 0
#2 COc1ccc(/C=N/NC(=O)c2c(C)nc3ccc(Br)cn23)cc1OC
    4372 | -55 | · | · | -7 | · | ·
#61 Cc1sc2nc(CSCC(=O)Nc3ccc(C(F)(F)F)cc3)[nH]c(=O)c2c1C
    5546 | · | 0.7 | -12 | · | 5 | 6
#60 CCOc1ccc(-c2ccc(NS(=O)(=O)c3cc([N+](=O)[O-])c(C)c([N+](=O)[O-])c3)cc2)nn1
    5916 | -2 | -5.3 | 6 | 2 | -1 | 1
#37 COc1ccc([N+](=O)[O-])cc1N(CC(=O)Nc1ccccc1C(=O)NC(C)C)S(C)(=O)=O
    3831 | -27 | 2.8 | 2 | -6 | 8 | 5
